Compound activity: PubChem BioAssay, Johns Hopkins Ion Channel Center
KCNQ2 pot: enhances the rat KCNQ2 potassium channel; O88943; CHO-K1 KCNQ2, FluxOR thallium flux fluorescence; stronger effect = higher value; B-score at 10 µM; 310,000 tested, 0.54% active;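 active = fluorescence ratio B-score at least 3 SD of library B-scores, with initial fluorescence B-score within 3 SD, cut at about 5.3 in these data; same plate scores as AID 2156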;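 note: B-score of peak minus minimum over baseline fluorescence ratio after K+ and Tl+ stimulus; positive B-score means potentiation of KCNQ2 with more thallium influx and brighter signal; only the inactives scoring about 0 or higher are listed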
Target sequence (O88943 whole entry, looked up): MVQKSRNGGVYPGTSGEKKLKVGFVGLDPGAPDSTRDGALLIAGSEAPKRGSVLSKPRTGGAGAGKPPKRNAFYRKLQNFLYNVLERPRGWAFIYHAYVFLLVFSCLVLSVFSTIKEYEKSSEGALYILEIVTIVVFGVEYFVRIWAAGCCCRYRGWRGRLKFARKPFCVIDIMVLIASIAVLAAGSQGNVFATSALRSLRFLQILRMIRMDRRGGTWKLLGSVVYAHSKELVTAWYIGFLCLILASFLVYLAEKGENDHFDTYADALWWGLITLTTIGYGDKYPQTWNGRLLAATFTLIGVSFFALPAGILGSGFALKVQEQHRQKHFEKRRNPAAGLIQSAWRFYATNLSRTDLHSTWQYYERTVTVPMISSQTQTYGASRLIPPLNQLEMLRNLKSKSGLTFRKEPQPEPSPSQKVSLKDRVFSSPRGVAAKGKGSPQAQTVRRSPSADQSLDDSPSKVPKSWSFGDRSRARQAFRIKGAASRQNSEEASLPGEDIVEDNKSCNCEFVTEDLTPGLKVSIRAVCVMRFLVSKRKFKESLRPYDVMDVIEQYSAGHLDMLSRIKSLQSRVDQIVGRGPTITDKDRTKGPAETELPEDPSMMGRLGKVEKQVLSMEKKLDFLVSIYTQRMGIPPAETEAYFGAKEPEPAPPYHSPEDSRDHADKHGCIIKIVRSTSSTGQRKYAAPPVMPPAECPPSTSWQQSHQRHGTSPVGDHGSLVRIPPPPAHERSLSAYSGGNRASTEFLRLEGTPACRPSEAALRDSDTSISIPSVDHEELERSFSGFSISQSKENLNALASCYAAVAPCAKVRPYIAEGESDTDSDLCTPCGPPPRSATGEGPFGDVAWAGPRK
KCNQ2 pot baseline: recorded beside KCNQ2 pot, whose call it bears; B-score; compound at 10 µM; measured here: initial fluorescence intensity artifact check;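 brightness before thallium and not channel activity; 0 = typical well and far values either way flag optical interference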
Numbers without * were called inactive.

SMILES	KCNQ2 pot	KCNQ2 pot baseline
S=C(Nc1cccnc1)NC1CCCC1	0.31	0.04
COc1ccccc1CNC(=O)c1ccncc1	0.33	2.35
O=C1CSc2ccc(C(=O)Nc3cccc(S(=O)(=O)Nc4ccc(Br)cc4)c3)cc2N1	0.68	-1.27
C=CCCCOc1ccc(C(=O)O)cc1	0.61	-0.01
Cc1cccc(-c2noc(C3CCCCC3)n2)c1	0.12	-0.36
CCN(CC)S(=O)(=O)c1ccc(NC(=O)C(C)N(c2ccccc2)S(C)(=O)=O)cc1 (stereo not given)	1.97	0.07
Cc1nnc(NC(=O)CSC2CCCCC2)s1	0.62	-0.43
Cc1ccc(NC(=O)CCN2C(=O)c3ccccc3C2=O)cc1	0.02	1.48
COc1ccccc1OCCCCOc1ccccc1F	0.02	1.45
CC(C)Cn1c(-c2csc(C(C)C)c2)n[nH]c1=S	1.36	-1.93
CN(C)C(=S)Oc1ccccc1-c1ccccc1OC(=S)N(C)C	1.44	1.52
CN(C)c1nc(Cl)cc(N2CCOCC2)n1	1.28	1.52

Grouped by structure, the entries above containing an aryl methoxy group.
SMILES	KCNQ2 pot	KCNQ2 pot baseline
COc1ccccc1CNC(=O)c1ccncc1	0.33	2.35
COc1ccccc1OCCCCOc1ccccc1F	0.02	1.45

Other entries follow:
SMILES	KCNQ2 pot	KCNQ2 pot baseline
COC(=O)C(C)n1cnc2c(nnn2-c2ccc(OC)cc2)c1=O (stereo not given)	0.08	-0.38
CCOC(=O)C(=CNc1cc(C)nn1C(C)(C)C)C(=O)OCC	0.76	-1.4
O=C(NCC(O)c1ccccc1)c1cccs1 (stereo not given)	1.21	0.36
COc1ccc(S(=O)(=O)N2CCCCC2C)cc1 (stereo not given)	0.35	-0.39
CCOc1ccc(-c2c(C)n([O-])c3c([n+]2=O)CCCCC3)cc1	0.54	1.61
O=C(NNC(=O)c1ccccc1Cl)c1ccccc1Cl	0.96	0
CCN1CCC(N2CCN(c3ccccc3OC)CC2)CC1	1.05	-1.62
CCOC(=O)N1CCN(C(=O)COc2ccc(S(=O)(=O)Nc3ccc(OCC)cc3)cc2)CC1	0.05	-0.21
CCN(CC)CC(=O)NCc1cc(-c2ccc(OC)cc2)no1	0.17	1.17
O=C(NCC1CC1)c1onc(CSc2nc3ccccc3[nH]2)c1C(=O)NCC1CC1	0.07	0.02
COc1ccc2[nH]cc(C(=O)CNc3nc(C)cs3)c2c1	0.09	0.71
CCOC(=O)CCc1c(C)nc2ncnn2c1C	0.34	-1.08
COc1ccc(C(=O)NCCS(=O)(=O)N2CCN(C(=O)c3ccco3)CC2)cc1	1.34	1.06
OCCNc1nc(Nc2cc(Cl)ccc2OC2CCCC2)nc(N2CCCC2)n1	1.34	-1.13
CN(C)N=Nc1nc2c(c(=O)n(C)c(=O)n2C)n1C	0.49	1.29
CCC1CCCCN1C(=O)CNCC1CCCO1 (stereo not given)	0.53	1.18
Cc1ccc(NC(=O)CSc2nnc(-c3ccccc3Br)o2)cc1C	0.24	-0.02
COc1ccccc1N(CC(=O)NCc1ccccc1)C(=O)CCC(=O)Nc1cc(C)ccn1	0.71	-0.54
Cc1cc(S(=O)(=O)Nc2ccc(C(=O)NCC3(N(C)C)CCCCC3)cc2)ccc1F	0.01	-0.02
Cc1ccc(NC(=S)N(CCCN2CCN(C)CC2)Cc2cccs2)cc1C	0.14	-0.71
O=C(CSc1nnc(CNC(=O)c2cccs2)o1)NC1CCCC1	1.92	-0.09
COc1ccccc1CC(=O)NCc1csc(-c2cccs2)n1	0.59	-1.08
COc1ccc(OCCn2cc(/C=N/NC(=O)c3ccncc3)c3ccccc32)cc1	0.1	-0.81
COc1cccc(Sc2ccccc2CN(C)C)c1	0.8	0.11
Cc1cc(C)cc(NC(=O)CSc2nnc(-c3ccccc3C)o2)c1	1.11	0.02
COc1ccc(C(=O)Cn2c(Cl)nc3c2c(=O)n(C)c(=O)n3C)cc1	0.77	-0.29
O=C(Cn1cc(C(F)(F)F)ccc1=O)N/N=C/c1ccc(Cl)cc1	0.94	1.25
COc1cc(S(=O)(=O)N(Cc2ccccn2)Cc2ccco2)ccc1-n1cnnn1	0.25	1.54
Cc1cc(C)c2c(c1)/C(=C/C(=O)c1ccc(Br)s1)C(=O)N2	0.06	-0.4
O=C(CCc1nc2ccccc2c(=O)[nH]1)Nc1ccc(F)c([N+](=O)[O-])c1	0.21	3.13
Cc1cc(NC(=O)c2ccc(N(C)S(=O)(=O)c3ccccc3)cc2)no1	1.46	-0.1
COC(=O)c1ccc(NC(=O)c2ccco2)cc1	1.07	3.97
Fc1ccc(CSc2nnc3ccccn23)c(Cl)c1	0.01	-0.33
N#C/C(=C\c1cccnc1)C(=O)Nc1ccc(C(=O)O)cc1	0.04	-0.82
CN(C1=C(NC(=O)c2ccccc2)C(=O)c2ccccc2C1=O)C1CCS(=O)(=O)C1 (stereo not given)	3.53	-0.02
CC(=O)Nc1ccc(NC(=O)c2cc(=O)c3cc(C)cc(C)c3o2)cc1	0.03	0.02
Cc1nn(CCC#N)c2[nH]c(=O)cc(C(F)(F)F)c12	1.49	0
O=C(CSc1nnc(-c2ccco2)n1Cc1ccco1)NCc1cccs1	0.13	-0.54
Cc1ccc(N(CN2CCCC2=O)C(=O)c2ccc(C)c(C)c2)cc1	0.17	0.25
COc1ccc2[nH]c3c(=O)n4c(nc3c2c1)SCCC4	0.96	1.71
COc1ccc(C(=O)NC(=S)NNC(=O)c2ccccc2O)cc1	0.72	-0.01
CCCCCCCCCCCC(=O)NC(Cc1ccc(OC)c([N+](=O)[O-])c1)C(=O)O (stereo not given)	3.34	-0.01
Cc1cc(N2CCCC2=O)cc(C)c1S(=O)(=O)NCCOc1ccccc1	0.96	1.58
N#Cc1cc([N+](=O)[O-])cnc1Nc1ccccc1	0.05	-0.38
CNC(=O)N(O)C1N(/N=C/c2ccccc2F)C(=S)SC1(C)C (stereo not given)	0.09	-0.14
CCC(C)Sc1nc2c(cnn2-c2ccc(C)cc2)c(=O)[nH]1 (stereo not given)	0.05	-0.5
COc1ccc(OCc2nnc(NC(=O)Nc3ccccc3F)s2)cc1	1.8	0.5
COC(=O)c1cccc(NC(=O)COc2cccc([N+](=O)[O-])c2)c1	0.02	-0.29
CCc1noc(C)c1C(=O)N(CCC(C)C)c1c(N)n(Cc2ccccc2)c(=O)[nH]c1=O	0.76	-0.22
CSC1=C(C#N)C(C)CC(=O)N1 (stereo not given)	1.46	-0.22
O=C(Nc1ccccc1[N+](=O)[O-])c1nc[nH]c1C(=O)NCCO	0.72	4.44
Cc1ccnc(NS(=O)(=O)c2ccc(NC(=O)CN3C(=O)c4ccccc4S3(=O)=O)cc2)n1	1.38	-0.19
COc1cc(-c2nnc(SC(C)C(=O)Nc3c(C)n(C)n(-c4ccccc4)c3=O)o2)cc(OC)c1OC (stereo not given)	0.89	-0.72
COc1ccc(N/C(N)=N/c2nc(C)cc(C)n2)c(OC)c1	2.48	-0.02
O=C(CCCn1c(=O)[nH]c2cc(Cl)ccc2c1=O)NC1CCCCCCC1	0.9	-0.28
O=C(Cn1nc(-c2ccccc2F)ccc1=O)NCc1ccc2c(c1)OCO2	0.39	1.17
Cc1ccc(NC(=O)CSCC(=O)Nc2cc(Cl)ccc2N2CCOCC2)cc1	3.17	-0.75
CCN1CCN(c2cc(C)c3cc(NC(=S)N4CCC5(CC4)OCCO5)ccc3n2)CC1	1.9	0.25
O=C(CC(=O)NCc1cccnc1)NCc1cccnc1	0.52	-0.04
Cc1nc2ccc(NC(=O)c3ccc(Cl)c(S(=O)(=O)N(C)c4ccccc4)c3)cc2s1	0.23	0.39

Whole records, looked up by structure. Order of screens: KCNQ2 pot, KCNQ2 pot baseline
Listed for `CCc1noc(C)c1C(=O)N(CCC(C)C)c1c(N)n(Cc2ccccc2)c(=O)[nH]c1=O` : 0.76, -0.22
Listed for `CCN1CCN(c2cc(C)c3cc(NC(=S)N4CCC5(CC4)OCCO5)ccc3n2)CC1` : 1.9, 0.25
Listed for `COc1ccc(N/C(N)=N/c2nc(C)cc(C)n2)c(OC)c1` : 2.48, -0.02
Listed for `O=C(Nc1ccccc1[N+](=O)[O-])c1nc[nH]c1C(=O)NCCO` : 0.72, 4.44
Listed for `O=C(CCCn1c(=O)[nH]c2cc(Cl)ccc2c1=O)NC1CCCCCCC1` : 0.9, -0.28

The listing continues:
SMILES	KCNQ2 pot	KCNQ2 pot baseline
COc1ccc(COC(=O)C2=C(C)NC(=O)NC2c2cc(Br)c(O)c(OC)c2)cc1 (stereo not given)	1.61	-0.6
C/C(=N\NC(=S)Nc1c(C)cccc1C)c1ccc(OC(F)F)cc1	0.23	1.36
Cc1ccc(/C=N/c2sc3c(c2C#N)CCC3)s1	0.89	-0.33
S=C(NC1CC1)N1CCc2ccccc2C1	0.69	-0.18
Cc1cccc(NC(=O)COc2ccc(/C=C\c3[nH]c(=O)[nH]c(=O)c3[N+](=O)[O-])cc2)c1	1.46	-1.09
O=C(Nc1ccc(S(=O)(=O)Nc2ccccn2)cc1)c1cccc(Br)c1	0.03	-2.24
CN(C)C(=S)NC1(C)CCS(=O)(=O)C1 (stereo not given)	0.17	1.91
CCOC(=O)N1CCC(NS(=O)(=O)c2ccc(NC(C)=O)c(Cl)c2)CC1	0.45	-0.07
COc1ccc(OC)c(S(=O)(=O)NCCCN2CCCC2=O)c1	0.72	-1.52
CCCN1CCN(CCCNC(=O)CN2C(=O)C(CC)Oc3ccccc32)CC1 (stereo not given)	0.54	0.55
COc1ccc(Cl)cc1S(=O)(=O)N1CCCC(C(=O)N2CCCC2)C1 (stereo not given)	0.62	-0.44
O=C(Nc1cccc(S(=O)(=O)N2CCCCC2)c1)c1ccc2c(=O)n3c(nc2c1)CCCCC3	1.9	0.74
COCCNc1nc(-c2ccc(OC)cc2)c(-c2ccc(OC)cc2)s1	0.01	0.28
CC(=O)c1ccccc1C(=O)N1CCCC(N2CCN(Cc3ccc4c(c3)OCO4)CC2)C1 (stereo not given)	1.67	2.41
Cc1ccc(NC(=O)Nc2ccno2)cc1	0.46	2.7
CCc1c(C)nc(N2CCN(c3ccccc3)CC2)[nH]c1=O	1.65	-0.84
CC1CCCCC1NC(=O)C1CCCN(S(=O)(=O)c2ccc(-n3cnnn3)cc2)C1 (stereo not given)	0.22	0.37
O=C1CN(C(=O)COC(=O)COc2ccc3c(c2)CCC3)c2ccccc2N1	0.59	-0.15
Cc1ccc(C(=O)COC(=O)c2ccccc2N2C(=O)C3C4CCC(C4)C3C2=O)cc1C (stereo not given)	1.44	1.72
Cc1cnc(C(=O)N2CCN(S(=O)(=O)c3ccc4ccccc4c3)CC2)cn1	1.8	-0.82
CCOc1ccccc1CN1CCC(Oc2cccc(C(=O)NCCOC)c2)CC1	0.35	-0.57
Cc1ccc(CNC(=O)c2ccc(N3CCCC3=O)cc2)cc1	0.48	-1.27
CC(=O)Nc1ccc(NC(=O)/C=C/c2ccc3c(c2)OCO3)cc1	0.66	1.61
Cc1cc(NC(=O)c2cc3ncc(Br)cn3n2)no1	0.46	0.83
O=C(COC(=O)c1ccccn1)NCc1ccccc1	1.28	-0.23
O=C(CNC(=O)c1ccccc1Br)N/N=C/c1ccco1	1.13	0.14
CC(C)c1cc(C(=O)N/N=C/C(Br)=C/c2ccccc2)n[nH]1	1.13	-0.13
O=C(O)c1ccccc1Cc1nc2cc(Cl)ccc2c(=O)[nH]1	2.03	-1.76
COc1cc(Br)cc(/C=N/c2ncn[nH]2)c1O	4.61	2.15
Cn1cc(C(=O)N/N=C/C(Br)=C\c2ccccc2)ccc1=O	0.14	0.43
O=C(CCl)NNc1nc(-c2ccccc2)c2cc(Cl)ccc2n1	0.72	0.46
Cc1ccc(-n2c(=O)cc(N3CC(C)CC(C)C3)[nH]c2=O)cc1 (stereo not given)	0.29	-0.86
CC1(C)Cc2c(C#N)c(OCC(=O)c3ccc(Cl)cc3)nc(-c3ccoc3)c2CO1	4.18	-0.59
COc1ccc(Cc2nnc(SCC(=O)N3CCN(c4ccccc4)CC3)o2)cc1	1.74	0.06
Cc1ccc(NC(=O)c2ccc(N/N=C/c3cccc(O)c3)c([N+](=O)[O-])c2)cc1	0.54	2.21
O=[N+]([O-])c1cccc(S(=O)(=O)NCCOc2cccc3cccnc23)c1	2.48	0.35

Two of these compounds, set out differently.
| SMILES | KCNQ2 pot | KCNQ2 pot baseline |
| --- | --- | --- |
| COc1ccc(Cc2nnc(SCC(=O)N3CCN(c4ccccc4)CC3)o2)cc1 | 1.74 | 0.06 |
| Cc1ccc(NC(=O)c2ccc(N/N=C/c3cccc(O)c3)c([N+](=O)[O-])c2)cc1 | 0.54 | 2.21 |

Next part
SMILES	KCNQ2 pot	KCNQ2 pot baseline
COc1ccc(CN2CCCC(C(=O)Nc3cccc(-n4cnnn4)c3)C2)c(C)c1C (stereo not given)	0.22	-0.29
Cc1c(NC(=O)c2ccccc2F)c(=O)n(-c2ccccc2)n1C	1.26	-0.51
CCC(CC(C)(C)O)C(=O)NNC(=S)Nc1ccccc1 (stereo not given)	0.21	-0.01
O=C(Cn1nc(Cl)nc1Cl)c1cc2ccccc2oc1=O	0.03	1.04
O=C(CCc1nnc2ccc(NCCCN3CCCC3=O)nn12)NCc1ccccc1Cl	1.11	0.2
CCC(=O)OCC(=O)Nc1ccc2c(c1)OCO2	0.11	1.87
O=C(C(=O)N1CCCc2ccccc21)c1cn(CC(=O)N2CCOCC2)c2ccccc12	0.22	-0.66
COc1cc(C(=O)OCC(=O)Nc2cccc(S(=O)(=O)N3CCCC3)c2)ccc1OCC(C)C	0.52	2.38
Cc1ccccc1NC(=O)COC(=O)c1ccccc1SCC(=O)N1CCCC1	1.52	-1.11
CN(C=[N+](C)C)c1cccc2c1C(=O)c1ccccc1C2=O	0.03	0.02

This is a subset, so the mix of outcomes need not match the whole.
